Screens from PubChem BioAssay.
AID504770: E. coli YBA685 growth inhibition, screen for V. cholerae RctB inhibitors; z-score (no concentration beside the values); AID 504770; 130,000 tested, 0.27% active; E. coli YBA685 rctB-dependent plasmid, OD600 growth, 3 h; hits give low values;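 active = z-score under -2 on both plates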;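 note: wells of about 30 µL received 100 nL stock; score is relative to mean and SD of the test wells; the first replicate is given; strong numbers were not always called active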
CapD inh: blocks the Bacillus anthracis CapD enzyme. purified CapD enzyme, fluorescence intensity read-out; hits give low values; some hits fall short of the stated cut. z-score (no concentration beside the values). 140,000 tested, 0.23% active. AID 492967;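 active = z-score under -4 in either of two replicates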;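 note: stock transfer was 100 nL into about 40 µL; score is relative to mean and spread of the plate; one replicate is shown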
An asterisk follows results filed as active; i = inactive; · = no result given; & = joins results of further samples.

| structure | AID504770 | CapD inh |
| --- | --- | --- |
| CCOc1ccc(CCNC(=O)C2CC(=O)N(CC)C(=Nc3ccc(C(=O)OC)cc3)S2)cc1OCC (stereo not given) | · | -0.485 |
| O=C(O)/C=C/C(=O)NCc1ccccc1 | -0.15 | 0.26 |
| O=C(/C=C/c1ccco1)NNC(=O)OCCN1CCN(CCCN2c3ccccc3Sc3ccc(Cl)cc32)CC1 | · | -0.99 |
| Cc1onc(-c2ccccc2Cl)c1C(=O)NCCOC12CC3CC(CC(C3)C1)C2 | -1.15 | -0.03 |
| COC(=O)c1c(C(=O)OC)c2ccncn2c1Cl | -0.5 | 74.1 |
| O=C(/C=[N+](\[O-])C1CCC/C1=N\O)c1ccccc1 (stereo not given) | -1.2 | · |
| COC(=O)c1ccc(COC(=O)c2ccc3c(c2)OCO3)o1 | -0.2 | · |
| COc1ccc(OCCN(C)C(=O)/C=C/c2nc3ccccc3o2)cc1 | -0.1 | · |
| CCCSc1sc(C(=O)OC)c2c1C(=O)CC(C)(C)C2 | · | -0.065 |
| N#CCCSc1nc2ccccc2n1CCc1ccccc1 | -0.6 | · |
| COc1ccc(N=Cc2c(O)[nH]c(=S)[nH]c2=O)cc1 | 1.25 | 0.11 |
| Cc1cc(OCCN2CCCC2)cc(C)c1Cl | 0.6 | · |
| CC(=O)N1CCN(S(=O)(=O)c2ccc(C)cc2)C1c1ccc(N(C)C)cc1 (stereo not given) | -0.25 | 0.2 |
| COc1cc2c(c(OC)c1OC)Cc1cc(OC)c(OC)c(OC)c1C2 | · | 0.03 |
| O=C(OCC1CCCN(Cc2cc3c(cc2Cl)OCO3)C1)N1CC=C(n2c(=O)[nH]c3ccccc32)CC1 (stereo not given) | · | 0.02 |
| Nc1cc(Cl)ccc1Sc1ccccc1 | -0.3 | 0.065 |
| CCN1CCN(C(=O)Cc2cccc3ccccc23)CC1 | 1.1 | -1.07 |
| CCOC(=O)c1c(-c2cccs2)csc1NC(=O)C(F)(F)F | -0.25 | · |
| Cc1cc2cc(CNC(=O)COc3ccccc3)ccc2n1C | -0.35 | -1.31 |
| CCOC(=O)c1cc2c(N(C)C)nccc2nc1C(F)(F)F | -0.1 | -0.055 |
| CCCCc1ccc(N2C(=O)C=CC2=O)cc1 | -1.15 | -0.475 |
| Cc1ccc(CCCOC(=O)CN2CCOCC2)cc1 | 0.65 | 0.07 |
| C(=NCCc1ccccc1)c1ccccc1 | · | 0.63 |
| CCCCn1nc(C)c(/C=N/NC(=O)CN2CCCc3ccccc32)c1Cl | 0.5 | · |
| COc1ccc(CCN2C(=O)c3ccccc3NC2c2c(C)nn(C)c2C)cc1 (stereo not given) | 0.1 | · |
| CCC(C)NC(=O)/C=C1\Sc2ccccc2NC1=O (stereo not given) | -0.4 | -0.105 |
| NCCCOCC1CCCO1 (stereo not given) | 0.15 | · |
| CCC(C)(C)c1ccc(S(=O)(=O)NCC2CCCCC2)cc1 | · | -0.41 |
| CCCCCC(=O)NC1(CCC)CCCC1 | 0 | 0.32 |
| Cc1nn(-c2ccccc2)c2[nH]c(=O)c(CNc3ccccc3)cc12 | -0.1 | · |
| N#C/C(=C\c1ccc(N2CCCC2)o1)c1ccccc1 | 0.2 | · |
| COC(=O)Nc1ccc(SCC(=O)N(c2ccccc2)C(C)C)cc1 | -0.9 | -0.075 |
| O=C(CSCc1cc(=O)n2c3c(sc2n1)CCCC3)NCc1ccc2c(c1)OCO2 | 0.1 | · |
| O=C(CSc1nc2[nH]ncc2c(=O)n1-c1ccc(Cl)cc1Cl)c1ccc(Cl)c(Cl)c1 | · | 0.005 |
| Cc1ccc(N=Cc2c(O)c3ccccc3n(C)c2=O)cc1 | -0.5 | · |
| CC1CC(C)CN(c2cc(NCCO)c3c4c(onc24)-c2ccccc2C3=O)C1 (stereo not given) | 1.85 | -0.605 |
| Cc1nn(-c2ccccc2)c2sc(C(=O)NCCN3C(=O)S/C(=C\c4cccnc4)C3=O)cc12 | 1.7 | · |
| CCCN(CCC)C1=C(C(=O)c2ccccc2)N(C)S(=O)(=O)c2ccccc21 | 0.35 | -0.57 |
| C[C@@]12CCC3[C@@](CC[C@@H]4[C@](C)(C(=O)O)CCC[C@@]34C)(C[C@H]1O)C2 (stereo not given in full) | 1.55 | 0.35 |
| O=C(O)c1cccnc1N1CCOCC1 | -0.7 | · |

An excerpt from above in order of molar mass, ascending:
| structure | AID504770 | CapD inh |
| --- | --- | --- |
| C[C@@]12CCC3[C@@](CC[C@@H]4[C@](C)(C(=O)O)CCC[C@@]34C)(C[C@H]1O)C2 (stereo not given in full) | 1.55 | 0.35 |
| O=C(CSCc1cc(=O)n2c3c(sc2n1)CCCC3)NCc1ccc2c(c1)OCO2 | 0.1 | · |
| O=C(CSc1nc2[nH]ncc2c(=O)n1-c1ccc(Cl)cc1Cl)c1ccc(Cl)c(Cl)c1 | · | 0.005 |

The listing picks up; the 6 compounds before the break are reprinted first.
| structure | AID504770 | CapD inh |
| --- | --- | --- |
| Cc1ccc(N=Cc2c(O)c3ccccc3n(C)c2=O)cc1 | -0.5 | · |
| CC1CC(C)CN(c2cc(NCCO)c3c4c(onc24)-c2ccccc2C3=O)C1 (stereo not given) | 1.85 | -0.605 |
| Cc1nn(-c2ccccc2)c2sc(C(=O)NCCN3C(=O)S/C(=C\c4cccnc4)C3=O)cc12 | 1.7 | · |
| CCCN(CCC)C1=C(C(=O)c2ccccc2)N(C)S(=O)(=O)c2ccccc21 | 0.35 | -0.57 |
| C[C@@]12CCC3[C@@](CC[C@@H]4[C@](C)(C(=O)O)CCC[C@@]34C)(C[C@H]1O)C2 (stereo not given in full) | 1.55 | 0.35 |
| O=C(O)c1cccnc1N1CCOCC1 | -0.7 | · |
| CSc1nc2ccccc2[nH]1 | · | 0.99&-0.48 |
| CCOC(=O)C(C)Sc1nc2c([nH]c3ccccc32)c(=O)n1-c1ccc(F)cc1 (stereo not given) | -0.15 | 1.3 |
| COc1ccc(-c2noc(COc3cc(C)c(Cl)c(C)c3)n2)cc1OC | -0.5 | 0.125 |
| C=C(C)c1cccc(C(C)(C)NC(=O)NC2CC2)c1 | 0 | · |
| CCOc1nc(C)nc2c1sc(=S)n2C | 0.45 | -0.45 |
| O=S(=O)(/N=C(/Nc1cccc(O)c1)c1ccccc1)c1ccccc1 | 0.9 | · |
| CCOc1ccc(/C=N/NC(=O)N/N=C/c2ccc(OCC)c(OC)c2)cc1OC | · | -0.21 |
| COC(=O)/C(C#N)=C/c1ccc(OC)c(OC)c1Cl | · | 0.165 |

Next results:
Sequence of screens – AID504770 | CapD inh
CC(C)(C)Sc1cc(C(=O)O)sc1C(=O)O
→ 0 | ·
CCc1ccc(NC(=O)Cn2ncc3ccccc32)cc1
→ -0.6 | 0.405
O=C(CSc1nc2ccccc2[nH]1)c1cccs1
→ -1.75 | ·
O=C(O)C(CO)NS(=O)(=O)c1ccc(F)cc1 (stereo not given)
→ 0.6 | ·
Fc1ccc(CN2CCCN(Cc3ccc(F)cc3)C2c2cccnc2)cc1
→ -1.15 | -0.655
Nc1nnc(SCC(=O)NCc2ccco2)n1CC(=O)NCc1ccco1
→ -0.95 | -0.45
Nc1ncc(Cc2ccccc2)s1
→ -0.55 | ·
O=C(Nc1cscc1S(=O)(=O)c1ccccc1)c1ccccc1Cl
→ 0.15 | 0.64
CCOc1ccc(-c2[nH]nc3c2C2(C(=O)Nc4ccc(C)c(Br)c42)C(C#N)=C(N)O3)cc1 (stereo not given)
→ · | -0.45
Cc1ccc(NS(=O)(=O)C(F)(F)F)cc1
→ -0.3 | 0.12
CCOC(=O)C1=C(O)/C(=C\c2sccc2C)N=C1C
→ 0.05 | ·
COc1ccc(OC)c(C2CC(c3c(-c4ccccc4)c4cc(Cl)ccc4[nH]c3=O)=NN2C(=O)CCC(=O)O)c1 (stereo not given)
→ · | 2.25
COc1ccc(/C=C2\SC(=S)N(CCC(=O)Nc3cccc(C(F)(F)F)c3)C2=O)cc1OC
→ · | -0.105
CCc1ccc2[nH]c(C(=O)NC(C)COC)cc2c1 (stereo not given)
→ 1.5 | 16.3
O=C1C2C(C(=O)N1/N=C/c1ccccc1)C1C=CC2C12CC2 (stereo not given)
→ -0.9 | 0.185
COc1ccc(CCNC(=O)Cc2nn(C)c(=O)c3ccccc23)cc1OC
→ 1.9 | ·
CCOC(=O)c1ccc(N2C(=O)CS(=O)(=O)CC2=O)cc1
→ -0.6 | -0.175
COc1ccccc1C(=O)NC1=NN(c2ccc3ccccc3c2)CC1
→ -0.15 | ·
Cc1ccn2c(NC(=O)c3cccs3)c(-c3ccccc3)nc2c1
→ · | -0.18
O=C(CSCc1cnn(-c2ccccc2)c1-n1cccc1)N1CCCCC1
→ 0.2 | 0.7
C=CCN(CC=C)C(=O)c1csc(Nc2ccc(OC)cc2)n1
→ -0.05 | -0.035
C[C@@H]1CC[C@H]2[C@H](C)[C@H]3CC[C@@]4(O)C5C[C@@H](O)[C@H]6C[C@H](O)CC[C@]6(C)[C@H]5C[C@H]4[C@@H]3CN2C1 (stereo not given in full)
→ -0.55 | 0.41
Cc1c(C=Nc2ccc(S(=O)(=O)N(C)C)cc2)c(O)n(C)c(=O)c1C#N
→ -1.4 | -0.7
Cc1ccc(NC(=O)c2noc3c2CCc2ccccc2-3)cc1
→ 1.55 | -1.17
CC(C)(CO)NC12CC3CC(CC(C3)C1)C2
→ 1.1 | -0.02
COc1cc(OC)nc(-c2sc3ccccc3c2OC)n1
→ · | 12
Fc1ccc2nc(NCc3ccccc3)sc2c1
→ -0.6 | ·
O=C(O)CC1(Cc2nc3ccccc3s2)CCCC1
→ -0.25 | ·
O=S(=O)(/C=C/c1ccc(-c2ccc(Cl)cc2)o1)NCc1cccs1
→ · | 66.3
Cc1cc(C(=O)CSc2nc(N)nc(N)n2)c(C)n1CCC1=CCCCC1
→ 2.5 | ·
CSc1cccc(NC2OC(=O)c3ccccc32)c1 (stereo not given)
→ · | 0.225
COc1ccc(/C=C2\Oc3ccccc3N(CC(=O)NC(C)c3ccccc3)C2=O)cc1 (stereo not given)
→ 1.95 | -0.125
CC(C)(C)c1cc(C(=O)N(CCO)CCO)cc(C(C)(C)C)c1
→ 1.7 | -0.22
Cn1c(/C(C#N)=N/O)nc2ccccc21
→ -1.2 | -1.64
O=C(O)c1ccc(Nc2cnn(C34CC5CC(CC(C5)C3)C4)c(=O)c2Cl)cc1
→ -0.7 | -0.045
O=C(COC(=O)CC1CC2CCC1C2)NCc1ccc(F)cc1 (stereo not given)
→ 0.5 | 0.845
COc1ccc(C(=O)CSc2nnc(-c3ccc4c(c3)OCO4)n2-c2ccccc2)cc1
→ · | 0.07
C=C(C)C(=O)Nc1ccc(-c2nc3cc(NC(=O)C(=C)C)ccc3o2)cc1
→ 1.65 | i
Cc1noc(C)c1S(=O)(=O)N1CC(C)OC(C)C1 (stereo not given)
→ -0.25 | 0.655
Clc1ccc(Oc2nc(-c3ccccc3)nnc2-c2ccccc2)c(Cl)c1
→ · | -0.31
O=C(Nc1ccccc1)C1CCCN1S(=O)(=O)c1ccc(Cl)cc1 (stereo not given)
→ · | -0.325
Cc1onc(-c2ccccc2Cl)c1C(=O)OCC(=O)c1ccccc1
→ -0.1 | 0.37
CCN(c1ccc(OC)cc1)S(=O)(=O)c1ccc(-c2cc(C(F)(F)F)no2)s1
→ 0.4 | -0.275
O=C(O)c1cc(C(=O)O)c2cc(Cl)ccc2n1
→ -0.65 | 0.35
Cc1ccc(C)c(-c2nnc(NC(=O)C3CC3)o2)c1
→ -0.95 | ·
c1cc2c(cc1-n1nnnc1SCC1CC1)OCO2
→ -0.25 | 0.3
CCc1ccc(NC(=O)c2cc(C3CC3)on2)cc1
→ 0.05 | -0.36
N#Cc1ccccc1NC(=O)CSc1ncnc2ccccc12
→ -0.5 | ·
Cc1cc(C)n(-c2ccc(S(N)(=O)=O)cc2)n1
→ -0.85 | 0.555
Cc1ccc(N2CC(O)(c3ccc(OC(F)F)cc3)[N+]3=C2CCCC3)cc1 (stereo not given)
→ · | 3.83
CC1=C/C(=N/NC(=O)c2nc3ccccn3c2C)CC(C)(C)C1
→ -0.15 | ·
COc1ccc(CNCCC2(c3ccccc3)CCOC(C)(C)C2)cc1OC (stereo not given)
→ -0.4 | 0.015
CC(C)Cn1ccn(-c2cccc(Cl)c2)c(=O)c1=O
→ 0.1 | ·
c1ccc2c(c1)CC(CN1CCNCC1)O2 (stereo not given)
→ 0.75 | ·
CC1(C)CC(=O)C2=C(C1)Nc1ccccc1N(C(=O)c1ccccc1)C2c1ccccc1 (stereo not given)
→ -0.55 | 0.545
Cn1cnnc1Sc1nc2c(c(=O)n(C)c(=O)n2C)n1Cc1ccc(Cl)cc1Cl
→ · | -0.615
c1ccc2c(c1)OCC(CNc1ncnc3nc[nH]c13)O2 (stereo not given)
→ -1.1 | ·
Cc1ccc(NC(=O)CC2SC(=O)N(CN3CCOCC3)C2=O)cc1 (stereo not given)
→ · | -0.56
Cc1ccc(Oc2ncccc2[N+](=O)[O-])c2c1CCC2
→ · | 0.24
CC(C)(C)Nc1ncnc2c1cnn2-c1ccc(Cl)cc1
→ -0.55 | 1.14

(next part)
Sequence of screens – AID504770 | CapD inh
CC(C)CCNC(=O)c1nnc(Cc2ccc(Cl)cc2)o1
→ -0.55 | 0.25
O=C1CSC(N=Nc2c(O)[nH]c3ccccc23)=N1
→ -0.3 | -4.12*
NC(=O)NOCc1ccccc1
→ -0.3 | ·
CCOc1ccc(OCCNC(=S)NC)cc1
→ -0.6 | ·
Oc1ccc(CNc2ccccc2O)cc1
→ -0.2 | 0.555
O=C(CSC1=NCCS1)NC1CC1
→ -0.85 | 0.065
CCN(CC)c1ccc2c(=O)[nH][nH]c(=O)c2c1
→ -0.95 | 0.01
CN1C(=O)c2cccc3c(S(=O)(=O)N(C)C)ccc1c23
→ -0.5 | ·
S=C(NCc1ccncc1)Nc1ccccc1Cl
→ · | -0.165
O=C(c1ccccc1)N1CCN(C2c3cccc4cccc(c34)C2NS(=O)(=O)c2ccc(Cl)cc2)CC1 (stereo not given)
→ · | -0.77
O=c1[nH]c2ccc(N=Cc3ccc(C#Cc4ccccc4)cc3)cc2o1
→ -0.75 | -0.215
COc1ccc(/C=C2\N=C(c3ccc(-c4ccccc4)cc3)OC2=O)cc1OC(C)=O
→ · | 0.725

Only part of the results is shown; count on the stated rates, not on these rows.
